# Ran importin – RanGTP/importin-beta interaction disruptors – biochemical, CFP-Ran/YFP-importin-beta FRET, RCC1, cell-free, primary screen (AID 434961); inhibition, %; actives 0.2% (n = 7,700); CFP-Ran/YFP-importin-beta FRET, cell-free; stronger effect = higher value;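 active means more than half of the replicate wells above 15% inhibition; inconclusive means exactly half above it; inactive means fewer than half above it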;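 further: 0% = DMSO wells and 100% inhibition = RanGDP control wells on each plate; stock of unstated strength diluted about 400-fold; mean of two wells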
# An asterisk follows results filed as active; ? = inconclusive. Some of the compounds tested, so the mix of outcomes need not match the whole.
Cc1noc(C)c1S(=O)(=O)Nc1ccc2c(c1)C(=O)N([C@H](C)CO)C[C@@H](C)[C@H](CN(C)C(=O)NC(C)C)OCCCC[C@@H](C)O2
- Ran importin = -2.4
CNC[C@H]1Oc2ccc(NC(=O)Nc3ccccc3)cc2CC(=O)N([C@H](C)CO)C[C@@H]1C
- Ran importin = 0.9
C[C@H]1CN([C@@H](C)CO)C(=O)c2cccc(NC(=O)C3CCOCC3)c2O[C@@H]1CN(C)C(=O)Nc1cccc2ccccc12
- Ran importin = 1.5
COc1ccc(CN(C)C[C@@H]2Oc3ccc(NC(=O)NC4CCCCC4)cc3C(=O)N([C@H](C)CO)C[C@H]2C)cc1
- Ran importin = -3.0
C[C@@H]1CCCCO[C@H](CN(C)C(=O)Nc2ccc(C(F)(F)F)cc2)[C@H](C)CN([C@H](C)CO)C(=O)c2cc(NS(C)(=O)=O)ccc2O1
- Ran importin = 3.4
C[C@@H]1CCCCO[C@H](CN(C)C)[C@H](C)CN([C@@H](C)CO)C(=O)c2cc(NS(=O)(=O)c3cn(C)cn3)ccc2O1
- Ran importin = -3.1
CC(C)NC(=O)N(C)C[C@@H]1Oc2ccc(NC(=O)Nc3ccccc3)cc2C(=O)N([C@@H](C)CO)C[C@H]1C
- Ran importin = -1.4
C[C@H]1CCCCO[C@@H](CN(C)C(=O)Nc2ccc(F)cc2)[C@@H](C)CN([C@@H](C)CO)C(=O)c2cc(NS(=O)(=O)c3ccccc3)ccc2O1
- Ran importin = -6.0
C[C@@H]1CN([C@@H](C)CO)C(=O)CCCn2nncc2CO[C@@H]1CN(C)S(=O)(=O)c1ccc2ccccc2c1
- Ran importin = 1.6
CNC[C@H]1OCCCC[C@@H](C)Oc2ccc(NS(=O)(=O)c3c(C)noc3C)cc2C(=O)N([C@@H](C)CO)C[C@H]1C
- Ran importin = ?
C[C@H](CO)N1C[C@H](C)[C@H](CN(C)C(=O)NC2CCCCC2)Oc2ccc(NC(=O)Nc3ccc(C(F)(F)F)cc3)cc2CC1=O
- Ran importin = -0.4
C[C@@H]1CN([C@H](C)CO)C(=O)Cc2cc(NS(=O)(=O)c3cn(C)cn3)ccc2O[C@@H]1CN(C)S(=O)(=O)c1cn(C)cn1
- Ran importin = 2.9
C[C@H](CO)N1C[C@H](C)[C@@H](CN(C)Cc2ccccc2)OCCCC[C@H](C)Oc2ccc(NC(=O)Nc3ccc4c(c3)OCO4)cc2C1=O
- Ran importin = 0.0
C[C@H]1CCCCO[C@H](CN(C)Cc2ccncc2)[C@@H](C)CN([C@@H](C)CO)C(=O)c2cc(NS(=O)(=O)c3ccccc3)ccc2O1
- Ran importin = -3.0
C[C@H](CO)N1C[C@H](C)[C@H](CN(C)S(=O)(=O)c2ccc(Cl)cc2)Oc2c(NC(=O)C3CCOCC3)cccc2C1=O
- Ran importin = 4.9

C[C@@H]1CN([C@@H](C)CO)C(=O)c2cccc(NS(C)(=O)=O)c2O[C@H]1CN(C)CC1CC1
- Ran importin = -5.1
C[C@H]1CCCCO[C@H](CN(C)C(=O)Nc2ccccc2)[C@@H](C)CN([C@@H](C)CO)C(=O)c2cc(NC(=O)C3CCCCC3)ccc2O1
- Ran importin = 4.7
Cc1noc(C)c1NC(=O)Nc1cccc2c1O[C@@H](CN(C)Cc1ccc3c(c1)OCO3)[C@@H](C)CN([C@@H](C)CO)C2=O
- Ran importin = -3.3
C[C@@H]1CN([C@@H](C)CO)C(=O)c2cc(NS(=O)(=O)c3ccc(Cl)cc3)ccc2O[C@@H]1CN(C)C(=O)Nc1ccc2c(c1)OCO2
- Ran importin = ?
C[C@@H]1CCCCO[C@H](CN(C)Cc2ccc3c(c2)OCO3)[C@H](C)CN([C@@H](C)CO)C(=O)c2cc(NC(=O)CCCN(C)C)ccc2O1
- Ran importin = -3.5
Cc1noc(C)c1S(=O)(=O)Nc1ccc2c(c1)C(=O)N([C@@H](C)CO)C[C@@H](C)[C@H](CN(C)C(=O)NC(C)C)OCCCC[C@H](C)O2
- Ran importin = -2.7
Cc1noc(C)c1NC(=O)N(C)C[C@H]1Oc2ccc(NC(=O)CCC(F)(F)F)cc2CC(=O)N([C@H](C)CO)C[C@H]1C
- Ran importin = -2.4
C[C@@H]1CN([C@H](C)CO)C(=O)c2cc(NC(=O)Nc3ccc4c(c3)OCO4)ccc2O[C@H]1CN(C)S(=O)(=O)c1cn(C)cn1
- Ran importin = ?
C[C@H]1CN([C@@H](C)CO)C(=O)Cc2cc(NC(=O)Cc3cn(C)c4ccccc34)ccc2O[C@@H]1CN(C)Cc1ccc(C(=O)O)cc1
- Ran importin = -3.6
COc1ccc(S(=O)(=O)N(C)C[C@H]2Oc3ccc(NS(C)(=O)=O)cc3CC(=O)N([C@H](C)CO)C[C@@H]2C)cc1
- Ran importin = 1.5
CNC[C@H]1Oc2ccc(NC(=O)c3ccncc3)cc2CC(=O)N([C@H](C)CO)C[C@H]1C
- Ran importin = 4.5
C[C@@H]1CCCCO[C@@H](CN(C)C(=O)CCCN(C)C)[C@H](C)CN([C@H](C)CO)C(=O)c2cc(N(C)C)ccc2O1
- Ran importin = -1.7
C[C@@H]1CN([C@@H](C)CO)C(=O)Cc2cc(NC(=O)Nc3ccc(C(F)(F)F)cc3)ccc2O[C@H]1CN(C)CC1CC1
- Ran importin = 2.4
CNC[C@H]1Oc2ccc(NC(=O)C3CC3)cc2CC(=O)N([C@H](C)CO)C[C@@H]1C
- Ran importin = -1.0
Cc1noc(C)c1S(=O)(=O)Nc1cccc2c1O[C@@H](CN(C)Cc1ccc(C(=O)O)cc1)[C@@H](C)CN([C@@H](C)CO)C2=O
- Ran importin = -1.9

C[C@H]1CCCCO[C@H](CN(C)C)[C@@H](C)CN([C@@H](C)CO)C(=O)c2cc(NC(=O)CCCN(C)C)ccc2O1
- Ran importin = 0.2
C[C@H]1CN([C@@H](C)CO)C(=O)Cc2cc(NC(=O)Nc3ccc(C(F)(F)F)cc3)ccc2O[C@@H]1CN(C)Cc1ccncc1
- Ran importin = -4.2
C[C@@H]1CN([C@@H](C)CO)C(=O)c2cc(NC(=O)Cc3ccccc3)ccc2O[C@@H](C)CCCCO[C@H]1CN(C)C(=O)CCC(F)(F)F
- Ran importin = ?
C[C@@H]1CN([C@@H](C)CO)C(=O)Cc2cc(NC(=O)Cc3cn(C)c4ccccc34)ccc2O[C@H]1CN(C)S(=O)(=O)c1cn(C)cn1
- Ran importin = 2.3
CC(C)NC(=O)Nc1ccc2c(c1)C(=O)N([C@@H](C)CO)C[C@@H](C)[C@H](CN(C)S(=O)(=O)c1cn(C)cn1)OCCCC[C@@H](C)O2
- Ran importin = ?
CNC[C@H]1Oc2c(NS(=O)(=O)c3cn(C)cn3)cccc2C(=O)N([C@H](C)CO)C[C@@H]1C
- Ran importin = -2.1
C[C@@H]1CN([C@H](C)CO)C(=O)CCCn2cc(nn2)CO[C@H]1CN(C)C(=O)Nc1ccccc1C(F)(F)F
- Ran importin = 2.0
C[C@@H]1CN([C@@H](C)CO)C(=O)Cc2cc(NC(=O)c3ccncc3)ccc2O[C@H]1CN(C)C(=O)NC1CCCCC1
- Ran importin = -4.8
CC(C)NC(=O)Nc1cccc2c1O[C@H](CN(C)CC1CC1)[C@@H](C)CN([C@@H](C)CO)C2=O
- Ran importin = 0.2
C[C@@H]1CN([C@H](C)CO)C(=O)c2cc(NS(=O)(=O)c3cccs3)ccc2O[C@@H](C)CCCCO[C@@H]1CN(C)C(=O)CCC(F)(F)F
- Ran importin = -3.3
C[C@@H]1CCCCO[C@@H](CN(C)S(=O)(=O)c2ccc(F)cc2)[C@@H](C)CN([C@H](C)CO)C(=O)c2cc(NC(=O)Nc3ccccc3)ccc2O1
- Ran importin = 2.2
C[C@H]1CCCCO[C@H](CN(C)C)[C@@H](C)CN([C@@H](C)CO)C(=O)c2cc(NS(=O)(=O)c3cccs3)ccc2O1
- Ran importin = 2.0
C[C@@H]1CN([C@H](C)CO)C(=O)c2cccc(NC(=O)Nc3cccc4ccccc34)c2O[C@H]1CN(C)C(=O)Nc1cccc2ccccc12
- Ran importin = -4.7
C[C@@H]1CCCCO[C@@H](CN(C)C(=O)Nc2ccccc2)[C@H](C)CN([C@H](C)CO)C(=O)c2cc(NC(=O)Cc3ccccc3)ccc2O1
- Ran importin = ?
C[C@H](CO)N1C[C@H](C)[C@H](CN(C)S(=O)(=O)c2cn(C)cn2)Oc2ccc(N(C)C)cc2C1=O
- Ran importin = -0.8

# 4 entries from above, reformatted:
Structure	Ran importin
C[C@@H]1CN([C@H](C)CO)C(=O)c2cc(NS(=O)(=O)c3cccs3)ccc2O[C@@H](C)CCCCO[C@@H]1CN(C)C(=O)CCC(F)(F)F	-3.3
C[C@@H]1CCCCO[C@@H](CN(C)S(=O)(=O)c2ccc(F)cc2)[C@@H](C)CN([C@H](C)CO)C(=O)c2cc(NC(=O)Nc3ccccc3)ccc2O1	2.2
C[C@H]1CCCCO[C@H](CN(C)C)[C@@H](C)CN([C@@H](C)CO)C(=O)c2cc(NS(=O)(=O)c3cccs3)ccc2O1	2.0
C[C@@H]1CN([C@H](C)CO)C(=O)c2cccc(NC(=O)Nc3cccc4ccccc34)c2O[C@H]1CN(C)C(=O)Nc1cccc2ccccc12	-4.7

# (listing goes on)
CNC[C@H]1Oc2c(cccc2N(C)C)C(=O)N([C@@H](C)CO)C[C@H]1C
- Ran importin = 2.3
Cc1noc(C)c1NC(=O)Nc1cccc2c1O[C@H](CN(C)Cc1ccc3c(c1)OCO3)[C@H](C)CN([C@H](C)CO)C2=O
- Ran importin = 1.3
CNC[C@@H]1Oc2ncc(Br)cc2C(=O)N([C@H](C)CO)C[C@@H]1C
- Ran importin = 2.3
C[C@H](CO)N1C[C@H](C)[C@H](CN(C)Cc2ccc(C(F)(F)F)cc2)Oc2ccc(NS(=O)(=O)c3cccs3)cc2CC1=O
- Ran importin = -0.4
C[C@@H]1CCCCO[C@@H](CN(C)C)[C@H](C)CN([C@@H](C)CO)C(=O)c2cc(NC(=O)Nc3ccccc3)ccc2O1
- Ran importin = -2.8
COc1ccc(S(=O)(=O)N(C)C[C@H]2Oc3c(NC(=O)C4CCOCC4)cccc3C(=O)N([C@@H](C)CO)C[C@H]2C)cc1
- Ran importin = 2.4
C[C@@H]1CN([C@@H](C)CO)C(=O)c2cc(NS(=O)(=O)c3ccccc3)ccc2O[C@@H](C)CCCCO[C@@H]1CN(C)C(=O)C1CCCCC1
- Ran importin = 1.8
CNC[C@H]1OCCCC[C@H](C)Oc2ccc(NC(=O)Nc3cccc4ccccc34)cc2C(=O)N([C@@H](C)CO)C[C@@H]1C
- Ran importin = 2.3
Cc1noc(C)c1NC(=O)N(C)C[C@H]1Oc2ccc(NS(=O)(=O)c3cn(C)cn3)cc2C(=O)N([C@H](C)CO)C[C@H]1C
- Ran importin = 3.2
C[C@H](CO)N1C[C@H](C)[C@@H](CN(C)C(=O)Nc2ccc(F)cc2)Oc2ccc(NC(=O)NC3CCCCC3)cc2C1=O
- Ran importin = -0.6
C[C@@H]1CN([C@@H](C)CO)C(=O)c2cc(NC(=O)C3CC3)ccc2O[C@H]1CN(C)C
- Ran importin = 0.2
COc1ccc(S(=O)(=O)N(C)C[C@@H]2Oc3c(NC(=O)NC4CCCCC4)cccc3C(=O)N([C@@H](C)CO)C[C@@H]2C)cc1
- Ran importin = 6.6
C[C@@H]1CN([C@H](C)CO)C(=O)Cc2cc(NC(=O)Cn3cnnn3)ccc2O[C@H]1CN(C)C(=O)NC1CCCCC1
- Ran importin = -3.0
CC(C)NC(=O)Nc1ccc2c(c1)C(=O)N([C@@H](C)CO)C[C@H](C)[C@H](CN(C)C(=O)CCC(F)(F)F)OCCCC[C@H](C)O2
- Ran importin = -3.9
Cc1noc(C)c1NC(=O)Nc1ccc2c(c1)C(=O)N([C@H](C)CO)C[C@@H](C)[C@H](CN(C)C(=O)C1CCCCC1)OCCCC[C@@H](C)O2
- Ran importin = 0.9

C[C@H]1CN([C@@H](C)CO)C(=O)c2cc(NC(=O)Nc3ccc(F)cc3)ccc2O[C@@H]1CN(C)S(=O)(=O)c1cccs1
- Ran importin = -4.8
C[C@@H]1CN([C@H](C)CO)C(=O)c2cc(NC(=O)Cc3ccccc3)ccc2O[C@@H]1CN(C)C(=O)NC1CCCCC1
- Ran importin = 1.3
C[C@@H]1CN([C@H](C)CO)C(=O)Cc2cc(N(C)C)ccc2O[C@@H]1CN(C)Cc1ccc(C(F)(F)F)cc1
- Ran importin = -5.1
C[C@H](CO)N1C[C@H](C)[C@@H](CN(C)C(=O)NC2CCCCC2)Oc2c(NS(=O)(=O)c3cccs3)cccc2C1=O
- Ran importin = -1.0
C[C@@H]1CN([C@H](C)CO)C(=O)Cc2cc(NC(=O)C3CC3)ccc2O[C@@H]1CN(C)C(=O)Nc1ccc(F)cc1
- Ran importin = 6.5
C[C@@H]1CN([C@H](C)CO)C(=O)c2cccc(NC(=O)c3ccncc3)c2O[C@H]1CN(C)Cc1ccc(C(F)(F)F)cc1
- Ran importin = -2.8
C[C@H]1CN([C@@H](C)CO)C(=O)c2cc(NC(=O)Nc3ccc(F)cc3)ccc2O[C@H]1CN(C)S(=O)(=O)c1cn(C)cn1
- Ran importin = -3.3
C[C@@H]1CCCCO[C@H](CN(C)Cc2ccncc2)[C@@H](C)CN([C@@H](C)CO)C(=O)c2cc(N(C)C)ccc2O1
- Ran importin = -4.1
C[C@@H]1CCCCO[C@H](CN(C)C)[C@H](C)CN([C@@H](C)CO)C(=O)c2cc(NS(=O)(=O)c3cccs3)ccc2O1
- Ran importin = 4.9
C[C@@H]1CCCCO[C@H](CN(C)C(=O)Nc2ccccc2)[C@@H](C)CN([C@@H](C)CO)C(=O)c2cc(NC(=O)c3ccccc3)ccc2O1
- Ran importin = -0.8
C[C@@H]1CCCCO[C@@H](CN(C)C(=O)Cc2ccccc2)[C@@H](C)CN([C@@H](C)CO)C(=O)c2cc(NC(=O)Nc3ccccc3)ccc2O1
- Ran importin = 4.6
C[C@@H]1CN([C@H](C)CO)C(=O)c2cccc(NS(=O)(=O)c3ccc(Cl)cc3)c2O[C@@H]1CN(C)C
- Ran importin = -2.2
Cc1cc(C(=O)Nc2cccc3c2O[C@H](CN(C)C(=O)Nc2ccccc2)[C@@H](C)CN([C@@H](C)CO)C3=O)n(C)n1
- Ran importin = 0.5
Cc1noc(C)c1NC(=O)Nc1cccc2c1O[C@H](CN(C)Cc1ccc3c(c1)OCO3)[C@H](C)CN([C@@H](C)CO)C2=O
- Ran importin = -4.4

# Screening data from PubChem.
